Bioassay records (PubChem BioAssay)
VACV mCherry inh = qHTS for Stage-Specific Inhibitors of Vaccinia Orthopoxvirus: mCherry Reporter Primary qHTS; Potency, µM (titrated, usually from 36.5 µM), for inactives: at the top dose activity change, negative = inhibition, usual class: inhibitors; Vaccinia virus mCherry reporter infection, fluorescence; about a quarter of the inactives have no number; AID 720579, 2013; 310,000 compounds, 0.63% hits; active = well fitted inhibition curve with a large enough effect; inconclusive = small, poorly fitted or top-dose-only effect; inactive = no such curve, though single readings can be large or run the other way; tested in A549 cells; note: nearly all actives have a fitted effect of over 35% in size; inactives centre near -10
VACV Venus inh = qHTS for Stage-Specific Inhibitors of Vaccinia Orthopoxvirus: Venus Reporter Primary qHTS. Vaccinia virus Venus reporter expression, fluorescence. Potency, µM (doses to about 36.5 µM), for the others: top-dose activity change, negative = inhibition, usual class: inhibitors. 330,000 compounds, 0.46% hits; active means well fitted inhibition curve with a large enough effect; inconclusive means small, poorly fitted or top-dose-only effect; inactive means no such curve, though single readings can be large or run the other way; tested in A549 cells; note: nearly all actives have a fitted effect of over 30% in size; inactives centre near -10
The depositor's hits bear a star; i = inactive; ? = inconclusive; . = not tested or not shown; & = joins results of further samples; [ ] = remark or other dose. % is set by controls: 0 for no effect and ±100 for the full control effect; potency is the fitted concentration of half-maximal effect.

A first look, 3 compounds:
SMILES	VACV mCherry inh	VACV Venus inh
COc1ccc(OCC(=O)N2CCN(C(=O)c3ccccc3)CC2)cc1	.	-29%
O=C(NNS(=O)(=O)c1ccc(F)cc1)c1ccc([N+](=O)[O-])cc1	-7%	2%
COC(=O)c1ccc(NC(=O)c2cccc(OC)c2)cc1	-7%	-28%

This part in full, repeating the preview:
SMILES	VACV mCherry inh	VACV Venus inh
COc1ccc(OCC(=O)N2CCN(C(=O)c3ccccc3)CC2)cc1	.	-29%
O=C(NNS(=O)(=O)c1ccc(F)cc1)c1ccc([N+](=O)[O-])cc1	-7%	2%
COC(=O)c1ccc(NC(=O)c2cccc(OC)c2)cc1	-7%	-28%
COc1ccc(NC(=O)CN(C)C2=NS(=O)(=O)c3ccccc32)cc1Cl	-13%	-4%
Cc1nn(-c2ccc(F)cc2)c(C)c1NS(=O)(=O)c1ccc(Cl)cc1	-3%	-9%
COc1cccc(NC(=O)Cn2c(=O)n(CCc3ccc(OC)c(OC)c3)c(=O)c3ccccc32)c1	-14%	-12%
COc1cc(O)c(C(CC(=O)N2CCCCC2)c2ccc(N(C)C)cc2)c(OC)c1 (stereo not drawn)	-26%	2%
CC(C)NC(=O)NC(=O)COC(=O)c1ccccc1O	-1%	-2%
CCc1ccc(OCC(=O)N(C)C)c(Br)c1	-16%	-8%
O=C(c1ccc2c(c1)OCO2)N(c1ccc(Cl)cc1)C1C=CS(=O)(=O)C1 (stereo not drawn)	-12%	-5%
CN(C(=O)COC(=O)c1ccc(Cl)s1)C1(C#N)CCCCC1	-20%	-15%
CCOc1cccc(N2C(=O)CC(N3CCN(c4nc5ccccc5s4)CC3)C2=O)c1 (stereo not drawn)	i	-11%
COC(=O)C1=C(c2cccc(OCc3ccccc3)c2)C[C@@H]2CC[C@H]1N2C(=O)NCc1ccc(Cl)cc1	-22%	?
Cc1ccccc1Cn1nc(C)c(NC(=O)c2ccccc2)c1C	-16%	-15%
Cc1ccc2oc(=O)cc(CN3CCCCC3)c2c1	-11%	-6%
CN(CC(=O)Nc1cccc(F)c1)C(=O)c1ccc(N2CCCCCC2)c([N+](=O)[O-])c1	?	-12%
Nc1nnc(Sc2ccc(Cl)cc2[N+](=O)[O-])s1	?	-4%
C=CCn1c(SCCCC)nc(O)cc1=O	i	-5%&7%
CCOC(=O)N1CCN(c2c(N3CCN(c4ccccc4F)CC3)c(=O)c2=O)CC1	4%	-1%
Cc1sc(-c2cc3c([nH]c2=O)CC(c2ccccc2)CC3=O)nc1-c1ccc(Cl)cc1 (stereo not drawn)	-20%	-13%
O=C(NN=Cc1cccc2ccccc12)C1CC1	i	-12%
CCOc1ccc(CNC(=O)C2=Cc3cc(Br)ccc3OC2)cc1OC	-7%	-7%
CN(CCc1ccccn1)C(=O)CCC1CCCN(C(=O)c2ccsc2)C1 (stereo not drawn)	i	-2%
Cc1ccc(CN(C(=O)COc2ccc([N+](=O)[O-])cc2)c2ccccn2)cc1	?	?
CCOc1cc(NC(=S)NCCCN2CCOCC2)c(OCC)cc1NC(=O)c1ccco1	-17%	0%

Next section:
SMILES	VACV mCherry inh	VACV Venus inh
CCCOc1cccn2c(N(C=O)Cc3ccc(OC)cc3)c(CC)nc12	20%	8%
C=C(C)C(=O)Nc1cccc(C2=NOC3(C2)C[C@H](C(N)=O)N(C(=O)/C=C/C)C3)c1 (stereo partly drawn)	i	-11%
COc1ccc(S(=O)(=O)N2CCCCC2)cc1NC(=O)CSc1ncnc2ccccc12	?	?
Cc1ccsc1-c1cc(C(=O)O)c2c(ccc3ccccc32)n1	-9%	-11%
CCNC(=O)C1(C)CCCN1C(=O)c1ccc(F)c(Cl)c1 (stereo not drawn)	2%	7%
COC(=O)C1=C(Nc2ccc(OC)cc2)C=C(C)C(C(=O)OC)C1c1ccc(C)cc1 (stereo not drawn)	.	-20%
CCOc1ccccc1N(CC(=O)N/N=C(\C)c1cccc(Br)c1)S(C)(=O)=O	-13%	-2%
COCCN(CC(=O)Nc1cccc(C)c1C)C(=O)c1oc2c(Cl)cccc2c1C	-24%	?
O=[N+]([O-])c1ccc(NN=Cc2ccco2)nc1	?	-10%
CC(C)OC(=O)c1c2c(n3ccccc13)C(=O)c1ccccc1C2=O	?	-15%
O=C(CN1C(=O)NC2(CCCCC2)C1=O)Nc1nc2c(F)cc(F)cc2s1	-18%	-12%
CCN(CC)C(=O)c1sc(NC(=O)Cc2ccc(OC)cc2)c(C#N)c1C	.	-12%
Cc1ccc(Nc2ccc(C(=O)O)cc2N)cc1	-11%	-6%
CCc1noc(C)c1C(=O)Nc1cc(S(=O)(=O)N(CC)CC)ccc1N1CCOCC1	-15%	-11%
CCOC(=O)c1ccc(N2C(=O)c3n[nH]c(-c4ccco4)c3C2c2ccc(O)cc2)cc1 (stereo not drawn)	-8%	-5%
CCOc1cc(-c2nc3c(C)cccn3c2NCC2CCCO2)ccc1O (stereo not drawn)	-9%	-12%
COC(=O)/C=c1/s/c(=C(\C#N)C(=O)NCc2ccco2)n(-c2ccccc2)c1=O	-5%	7%
CC1(Oc2ccc(CC#N)cc2)CCN(Cc2ccccc2OC(F)F)C1 (stereo not drawn)	-15%	-10%
COc1ccc2ccccc2c1CN1CCN(Cc2ccccc2)CC1	-10%	-18%
CCn1c(CNc2ccc(C(=O)O)cc2)nc2ccccc21	-10%	-3%
CC1(C(=O)Nc2nc3ccc(S(C)(=O)=O)cc3s2)CC1(Cl)Cl (stereo not drawn)	-3%	11%
Cc1ccccc1OCC(=O)Nc1ccc2nc(SCC(=O)N3CCCC3)sc2c1	-4%	-10%
c1ccc(-c2nc(-c3ccccn3)nc(-c3ccccn3)n2)nc1	11%	-4%
CC(=O)Nc1cc(-c2cccc(C(=O)NCCN(C)C)c2)cn2c(-c3cccc(C(F)(F)F)c3)cnc12	?	?
Cc1nn(-c2ccccc2)c2c1C1(C(=O)N(C(C)C)c3ccccc31)C(C#N)=C(N)O2 (stereo not drawn)	.	-16%

Brought forward from above: four entries, followed by the next part.
SMILES	VACV mCherry inh	VACV Venus inh
Cc1ccccc1OCC(=O)Nc1ccc2nc(SCC(=O)N3CCCC3)sc2c1	-4%	-10%
c1ccc(-c2nc(-c3ccccn3)nc(-c3ccccn3)n2)nc1	11%	-4%
CC(=O)Nc1cc(-c2cccc(C(=O)NCCN(C)C)c2)cn2c(-c3cccc(C(F)(F)F)c3)cnc12	?	?
Cc1nn(-c2ccccc2)c2c1C1(C(=O)N(C(C)C)c3ccccc31)C(C#N)=C(N)O2 (stereo not drawn)	.	-16%
O=C(Cn1cccc1)N1CCN(c2ccc(F)cc2)CC1	31%[activator]	1%
CCCCc1nn2c(=O)cc(COC(=O)C(C)Oc3ccccc3)nc2s1 (stereo not drawn)	-12%	-5%
COc1cc(NC(=O)CCS(=O)(=O)c2nc(-c3cccs3)cc(C(F)(F)F)n2)cc(OC)c1OC	?	-23%
O=C(CN1C(=O)C2C3C=CC(C4CC34)C2C1=O)OCC(=O)c1ccccc1 (stereo not drawn)	-12%	-7%
CC(C)c1ncc(C(O)c2ccccc2)n1C (stereo not drawn)	-9%	-3%
O=S(=O)(c1ccc(NC(=S)NN=Cc2ccccc2O)cc1)N1CCCCC1	13µM*	?
Cc1ccccc1C(=O)Oc1ccccc1N1C(=O)C2CC=CCC2C1=O (stereo not drawn)	-8%	-15%
Cc1ccc(C)c(NCCCCC(=O)O)c1	10%	4%
O=C(NC(=O)N1CCN(c2ccccc2F)CC1)c1ccccc1	-11%	-22%
COc1ccc(NC(=O)c2cccc3ccccc23)cc1OC	-10%	-11%
CC(=O)N/C(=C\c1ccccc1)C(=O)OCC(=O)N(C)C1CCCCC1	-28%	-18%
O=C(N/N=C/c1ccc(O)c(O)c1)NC12CC3CC(CC(C3)C1)C2	-23%	-10%
CCC1(c2ccccc2)NC(=O)N(CC(=O)Nc2ccc(N3CCCC3)cc2C)C1=O (stereo not drawn)	-27%	?
CCCCC1SC(N)=NC1=O (stereo not drawn)	i	-4%
Cc1ccc2c(=O)cc(C(=O)Nc3c(C(=O)Nc4cccc(Cl)c4)oc4ccccc34)oc2c1	11%	-1%
COc1cc(OC)c(OC)cc1CN1CCN(Cc2ccco2)CC1	i	1%
Cc1cccc(C(=O)NNC2=CC(=O)CC(C)(C)C2)c1O	-18%	-1%
COc1ccccc1O	-22%	-8%
CC1(C(=O)NCCCN2CCOCC2)Oc2cccnc2NC1=O (stereo not drawn)	-2%	-6%
CC1CCc2[nH]c3ccc(C(=O)N(C)CC(=O)Nc4cccc(F)c4)cc3c2C1 (stereo not drawn)	-22%	10%
COc1ccccc1NC(=O)COC(=O)c1cn(C)c2ccccc12	5%	-7%
O=C(O)CCCN1C(=O)/C(=C/c2cn(-c3ccccc3)nc2-c2cccs2)SC1=S	-18%	-1%
CCN1CCN(c2cc(C)c3cc(NC(=O)c4ccncc4)ccc3n2)CC1	-25%	-24%
COc1ccc(C(C)=O)cc1COc1ccc([N+](=O)[O-])c(C)c1	-11%	-6%
COc1ccc(NS(=O)(=O)c2ccc(N3CCCC3)c(NC(=S)Nc3ccc(SC(F)F)cc3)c2)cc1	?	-13%

The listing continues.
SMILES	VACV mCherry inh	VACV Venus inh
CCc1ccc(S(=O)(=O)c2ccc(-n3nc(C)cc3N)cc2)cc1	-14%	-13%
O=C(CSc1nnc(CN2CCOCC2)n1-c1ccc(Cl)cc1)N1CCc2ccccc21	.	-22%
CCc1ccc2oc(=O)cc(CN3CCCCC3)c2c1	-4%	-7%
Cc1noc(C)c1C(=O)N1CCc2ccccc21	-6%	-16%
Cc1ccc(C)c(OCC(=O)Nc2nc3ccc([N+](=O)[O-])cc3s2)c1	-19%	-12%
COc1ccccc1NC(=O)Cn1nnc(C(=O)NCc2cccs2)c1N	i	?
COc1nccnc1NS(=O)(=O)c1ccc(NC(=O)c2cccc(C)c2)cc1	i	-10%
COc1ccccc1Cc1nc2ccccc2nc1SCC(=O)NCc1ccc(C)cc1	2%	-6%
O=C(CC(=O)c1ccccc1)Nc1ccc([N+](=O)[O-])cc1	i	0%
CCCCC1(Cc2ccc(OC)c([N+](=O)[O-])c2)C(=O)N(c2ccccc2)N(c2ccccc2)C1=O	-17%	-15%
CCCCCCNS(=O)(=O)c1ccccc1Br	-2%	-20%
O=C(/C=C/c1ccc(Cl)c(Cl)c1)NCCCn1ccnc1	i	6%
O=C(CSc1nc2ccc(NC(=O)C3CCCCC3)cc2s1)NCC1CCCO1 (stereo not drawn)	i	-21%
S=C(NCCCc1ccccc1)NCc1ccccc1	-2%	-5%
O=c1[nH]c(=O)n(CCC2=CCCCC2)c(O)c1/C=N/Nc1ccccc1	-7%	-22%
Cc1ccc2nc(Cl)nc(-c3ccccc3)c2c1	-9%	-5%
O=C(NC1CCCC1)C(c1cccs1)N(CC1CCCO1)C(=O)Cc1cccs1 (stereo not drawn)	.	-5%
CCS(=O)(=O)N1Cc2ccccc2CC1C(=O)Nc1ccc(F)c(F)c1 (stereo not drawn)	-13%	-1%
COC(=O)c1cc2occc2n1CC(=O)Nc1cc(OC)cc(OC)c1	-20%	-15%
COc1ccc(CNC(=O)COC(=O)c2ccc(Br)cc2)cc1	-3%	-20%
Cc1oc(-c2ccc(Cl)cc2)nc1CS(=O)CC(=O)NCCc1ccccc1 (stereo not drawn)	-9%	-7%
CCOc1cccc(=O)c2c(C)oc(C)c12	-15%	-1%
Cn1c(Cn2cnc3ccccc32)nc2ccccc21	-1%	-15%
CCCN(CC(=O)Nc1ccc(Cl)cc1Cl)C(=O)/C=C/c1ccco1	-18%	-10%
Cc1nc2ccc([N+](=O)[O-])cc2c(=O)n1Cc1ccccc1Br	-8%	1%

The closing 5 compounds of the section above lead into the next.
SMILES	VACV mCherry inh	VACV Venus inh
Cc1oc(-c2ccc(Cl)cc2)nc1CS(=O)CC(=O)NCCc1ccccc1 (stereo not drawn)	-9%	-7%
CCOc1cccc(=O)c2c(C)oc(C)c12	-15%	-1%
Cn1c(Cn2cnc3ccccc32)nc2ccccc21	-1%	-15%
CCCN(CC(=O)Nc1ccc(Cl)cc1Cl)C(=O)/C=C/c1ccco1	-18%	-10%
Cc1nc2ccc([N+](=O)[O-])cc2c(=O)n1Cc1ccccc1Br	-8%	1%
COc1ccc(CN(C)C[C@H]2OCCCC[C@H](C)Oc3ccc(NC(=O)CCC(F)(F)F)cc3C(=O)N([C@@H](C)CO)C[C@@H]2C)cc1	-6%	-25%
COc1cc(OC)c(C2SCCN2S(=O)(=O)c2ccc(F)cc2)cc1OC (stereo not drawn)	-13%	-4%
Cc1nn(CC(=O)N2CC(=O)Nc3ccccc32)c(C)c1[N+](=O)[O-]	1%	3%
Cc1ccc(N(CC(=O)NC2CCCCC2)C(=O)CNC(=O)c2ccco2)cc1C	-15%	-5%
CN(c1ccc(O)cc1)c1nc(-c2cccs2)cs1	-10%	-15%
CN1c2ccc(Cl)cc2-c2nc(SCC(=O)Nc3cc(F)ccc3F)ncc2S1(=O)=O	-10%	-10%
O=C(c1cc([N+](=O)[O-])ccc1N1CCCCC1)N1CCc2ccccc21	-15%	-23%
O=C(Nc1ccc(Cl)c(C(F)(F)F)c1)N1CCCC(O)C1 (stereo not drawn)	.	-18%
Cc1ccc(-c2nc3ccccc3c(=O)n2-c2cc(C)ccn2)cc1	-15%	-4%
Cc1ccc(C2=Nc3ccccc3N=C(C(Cl)Cl)C2)cc1	-21%	-4%
CC(=O)c1cc(C#N)c(SCc2ccc([N+](=O)[O-])cc2)nc1C	?	2%
COc1ccc(NC(=O)CSCC(=O)NC2(C)CCS(=O)(=O)C2)cc1 (stereo not drawn)	-14%	-8%
